GIRK2 activ – activators of human GIRK2 potassium channels. calls only for hits at 25 µM. AID 1259325, 2017. G protein-activated inward rectifier potassium channel 2 (Homo sapiens), P48051. HEK293-GIRK2 thallium flux, Thallos fluorescence. 0.05% of 63,000 active;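 active = among the strongest 0.2% of first-round signals and kept after retests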;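 also: first round at about 10 µM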
Target sequence (P48051 whole entry, looked up): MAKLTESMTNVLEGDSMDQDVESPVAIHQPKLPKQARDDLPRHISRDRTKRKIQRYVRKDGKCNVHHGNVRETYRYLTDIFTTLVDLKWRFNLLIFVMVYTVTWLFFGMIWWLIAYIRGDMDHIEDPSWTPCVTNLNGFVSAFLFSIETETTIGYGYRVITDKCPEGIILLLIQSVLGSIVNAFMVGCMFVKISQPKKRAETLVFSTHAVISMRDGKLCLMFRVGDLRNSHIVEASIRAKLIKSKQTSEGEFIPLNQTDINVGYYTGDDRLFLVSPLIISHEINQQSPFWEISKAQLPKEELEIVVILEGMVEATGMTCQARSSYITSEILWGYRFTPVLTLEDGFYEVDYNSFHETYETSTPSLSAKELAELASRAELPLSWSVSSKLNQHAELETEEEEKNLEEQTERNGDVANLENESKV
Calls only; i = inactive.

SMILES	GIRK2 activ
O=C(c1sc2ncccc2c1-n1cccc1)N1CCN(c2ccccc2Cl)CC1	i
CC1(C)CC[C@]2(C(=O)O[C@@H]3O[C@H](CO)[C@@H](O)[C@H](O)[C@H]3O)CC[C@]3(C)C(=CCC4[C@@]5(C)C[C@@H](O)[C@H](O)C(CO)(CO)C5CC[C@]43C)C2[C@@H]1O (some centres undefined)	i
CC1CCN(c2oc(-c3ccc(S(=O)(=O)N(C)C)cc3)nc2C#N)CC1	i
Cn1c(=O)c2c(nc(Br)n2Cc2cccc(Cl)c2)n(C)c1=O	i
COc1cc(S(=O)(=O)N2CCN(c3cc(C)cc(C)c3)CC2)c(OC)cc1Br	i
COc1ccc(NC(=O)CSc2cc(C)nc3c(-c4ccc(Cl)cc4)c(C)nn23)cc1	i
COCCCN1COc2ccc3c(=O)c(-c4ccc(OC)cc4)c(C)oc3c2C1	i
Cc1nnsc1C(=O)N1CC(c2nc3ccccc3[nH]2)C1	i
O=C(NCc1ccc(F)cc1)C(=O)NCC(O)(c1ccccc1)C(F)(F)F (centres undefined)	i
Cc1cc(C)n(CC(=O)Nc2ccc(Br)cc2)c(=O)c1-c1nc(-c2ccccc2)no1	i
COC(=O)c1ccc(C(=O)Nc2nc3c(s2)COCC3)cc1	i
Cn1cc(C2=C(c3ccccc3[N+](=O)[O-])C(=O)NC2=O)c2ccccc21	i
COc1ccc(NC(=O)CN(C)c2nc3c(OC)cccc3s2)c(OC)c1	i
CCOc1ccc(-c2ccc(=O)n(CCNS(=O)(=O)c3cccc(Cl)c3)n2)cc1	i
Cc1nc2ccccc2n1CC1CCN(Cc2nc3ccccc3c(=O)[nH]2)CC1	i
COc1ccc(N2C(=O)C(F)(F)C2c2ccccc2)cc1 (centres undefined)	i
O=C(C1=C(O)C(=O)N(c2ccccn2)C1c1cccc(Br)c1)c1ccco1 (centres undefined)	i
Cc1cc(C)cc(N2C(=O)C3N=NN(c4ccc(C)c(Cl)c4)C3C2=O)c1 (centres undefined)	i
COc1ccc(Cl)cc1C(=O)N1CCN(C2=NN=C(c3cccs3)CS2)CC1	i
O=C(CCc1csc(NC(=O)c2cccs2)n1)NCc1cccs1	i
Cc1ccc(CNC(=O)/C(C#N)=C2\N=C(NC(=O)c3ccc(F)cc3)c3ccccc32)cc1	i
CCc1ccc(NC(=O)Cn2c(C)cc(C)c(S(=O)(=O)c3ccc(C)cc3)c2=O)cc1	i
O=C(NCCCn1nc(-c2cccs2)ccc1=O)c1cc2ccccc2oc1=O	i
CCN(CC)S(=O)(=O)c1ccc(C(=O)NCCc2cc3ccc(OC)cc3[nH]c2=O)cc1	i
Cc1nc(SCc2ccccc2F)[nH]c(=O)c1CC(=O)Nc1nc2ccccc2s1	i
Other records:
SMILES	GIRK2 activ
Cc1nc(C)c(CNC(=O)C2CCCN(c3ccc(-c4cccs4)nn3)C2)s1 (centres undefined)	i
CC(=O)Oc1ccc2c(c1)O/C(=C\c1ccc3c(c1)OCO3)C2=O	i
CCC(C)Sc1nnc(Cn2c(=O)sc3ccccc32)n1C (centres undefined)	i
CC(C)OC(=O)CC1C(=O)NCCN1C(=S)NC(=O)/C=C/c1cccs1 (centres undefined)	i
CCc1cc2c(=O)c(-c3nc4ccccc4n3C)c(COCC(=O)O)oc2cc1OC(=O)C(C)(C)C	i
CCOC(=O)c1ccc2nc(NC(=O)c3ccc4ccccc4n3)sc2c1	i
O=S(=O)(NCCN1CCN(c2ccccc2F)CC1)c1cccc2ccccc12	i
COc1ccc(CCNC(=O)CN2CCCC(COCc3ccccc3)C2)cc1OC (centres undefined)	i
O=C(NCC(O)c1ccc2c(c1)CCO2)c1ccc(F)c(F)c1 (centres undefined)	i
O=C(c1ccc(F)cc1Cl)N(CCc1cccs1)Cc1ccoc1	i
Cc1ccc2c(c1)N(C(=O)Cn1nc3ccc(S(=O)(=O)C(C)(C)C)nn3c1=O)CCO2	i
CCOC(=O)c1ccc(NC(=O)CN2N=NC3C(=O)N(c4ccc(OC)c(Cl)c4)C(=O)C32)cc1 (centres undefined)	i
CSc1ccc(CNC(=O)COc2cc(C)nc(N3CCN(c4ccccc4)CC3)n2)cc1	i
CO[C@H]1/C=C/O[C@@]2(C)Oc3c(C)c(O)c4c(O)c(c5c(c4c3C2=O)NC2(CCN(CC(C)C)CC2)N=5)=NC(=O)/C(C)=C\C=C\[C@H](C)[C@H](O)[C@@H](C)[C@@H](O)[C@@H](C)[C@H](OC(C)=O)[C@@H]1C	i
O=C(c1cccs1)N1CCN(c2ccc(-n3ccnc3)nn2)CC1	i
Cc1ccc(N2CCN(C(=O)Nc3cc(F)cc(F)c3)CC2)nn1	i
Cc1ccc2nc(C3CN(S(=O)(=O)c4ccc(Br)cc4)C3)[nH]c2c1	i
CCOC(=O)c1ccc(NC(=O)COc2cc(C)nc(N3CCN(c4ccccc4)CC3)n2)cc1	i
CC(=O)c1ccc(NC(=O)c2cc(-c3cccc([N+](=O)[O-])c3)oc2C)cc1	i
CCOC(=O)N1CCN(C(=O)c2cc(=O)c(OCc3cccc(OC)c3)cn2C)CC1	i
Cc1cc(CCNC(=O)c2ccc3ccccc3n2)on1	i
COc1ccc2c(C)c(C(=O)NCCc3ccncc3)oc2c1	i
CCCc1noc(C2CC(=O)N(c3ccc4c(c3)OCCO4)C2)n1 (centres undefined)	i
COc1ccc(CCNC(=O)N2CCC(c3nnc(-c4ccco4)s3)CC2)cc1	i
COCCN(Cc1ccncc1)C(=O)Nc1cccs1	i
(next part)
SMILES	GIRK2 activ
O=C1OC2CC1N(C(=O)c1c(F)cccc1Cl)C2 (centres undefined)	i
COc1ccccc1N1CCN(c2nccnc2SCC(=O)NCc2ccc(SC)cc2)CC1	i
Cc1cc(C(F)(F)F)nc(CCNC(=O)C2(c3ccccc3)CCOCC2)n1	i
COc1ccccc1C(O)Cn1cc(C(=O)Nc2ccc(Cl)c(C)c2)nn1 (centres undefined)	i
CC(C)NCC(O)COC(C)(C)C (centres undefined)	i
Cc1ccc2nc(N(Cc3cccnc3)C(=O)CN3C(=O)c4ccccc4C3=O)sc2c1	i
COc1ccc2nc(-n3nc(C)cc3NC(=O)c3ccc([N+](=O)[O-])o3)sc2c1	i
Cc1ccc(CNC(=O)C2CCN(c3nc4ccsc4c(=O)n3Cc3ccccc3)CC2)cc1C	i
O=C(CN1CCN(c2cccc(Cl)c2)C1=O)NCCO	i
COc1cccc(OCC(=O)Nc2ccc(OC)c(N3CCCC3=O)c2)c1	i
Cc1noc(-c2cccn3c(=O)n(Cc4noc(-c5ccccc5C)n4)nc23)n1	i
CCOC(=O)C1CCCN(c2nc(N3CCCC3)c3n[nH]nc3n2)C1 (centres undefined)	i
CC1=C(C)CC2C(=O)N(c3ccc(N(C)C)cc3)C(=O)C2C1 (centres undefined)	i
O=C(c1csc2nc(-c3ccc(F)cc3)cn12)N1CCCC1	i
Cc1ccc(Cn2c(=O)c3c(nc(NCCCOC(C)C)n3C)n(C)c2=O)cc1	i
COCCOCC1CCN(C(=O)c2cccc(N(C)C)c2)CC1	i
CN(C(=O)CN1CCC(COCc2ccc(F)cc2)CC1)c1ccccc1	i
COc1ccc(CCC(=O)Nc2ccc(Cn3cnc(C(=O)Nc4cccc(C)c4)c3)cc2)cc1	i

Molecules from the list above containing fluorine (12):
SMILES	GIRK2 activ
O=C(NCc1ccc(F)cc1)C(=O)NCC(O)(c1ccccc1)C(F)(F)F (centres undefined)	i
COc1ccc(N2C(=O)C(F)(F)C2c2ccccc2)cc1 (centres undefined)	i
Cc1ccc(CNC(=O)/C(C#N)=C2\N=C(NC(=O)c3ccc(F)cc3)c3ccccc32)cc1	i
Cc1nc(SCc2ccccc2F)[nH]c(=O)c1CC(=O)Nc1nc2ccccc2s1	i
O=S(=O)(NCCN1CCN(c2ccccc2F)CC1)c1cccc2ccccc12	i
O=C(NCC(O)c1ccc2c(c1)CCO2)c1ccc(F)c(F)c1 (centres undefined)	i
O=C(c1ccc(F)cc1Cl)N(CCc1cccs1)Cc1ccoc1	i
Cc1ccc(N2CCN(C(=O)Nc3cc(F)cc(F)c3)CC2)nn1	i
O=C1OC2CC1N(C(=O)c1c(F)cccc1Cl)C2 (centres undefined)	i
Cc1cc(C(F)(F)F)nc(CCNC(=O)C2(c3ccccc3)CCOCC2)n1	i
O=C(c1csc2nc(-c3ccc(F)cc3)cn12)N1CCCC1	i
CN(C(=O)CN1CCC(COCc2ccc(F)cc2)CC1)c1ccccc1	i

The list is partial; count on the stated rates, not on these rows.
